Anaer choline gr – growth inhibitors of anaerobic choline-fed gram-negatives, minimal medium, absorbance; Gram-negative bacterium anaerobic choline minimal medium; hits give low values; many inactives read as strong as hits in the columns shown; calls only; 55,000 tested, 0.2% active;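 active means growth z-score on choline under -2 at 7 or 20 h with little or no fall on glycerol, limits in tiers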;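 further: stock transfer was 300 nL into about 50 µL; the organism is E. coli; final concentration not given here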
Anaer choline gr early – recorded beside Anaer choline gr, whose call it bears; z-score; measured here: choline growth z-score, timepoint 1;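 score of optical density at 7 h as mean of two plates; lower means less growth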
* marks the source's active call; other numbers are inactive results; i = inactive.

#	Molecule	Anaer choline gr	Anaer choline gr early
1	CCn1nnc2c(Nc3ccc(Cl)cc3)ncnc21	i	-0.94
2	c1ccc(-c2nc3cc(-c4noc(C5CCC5)n4)ccc3o2)cc1	i	0.32
3	C=CCSc1nnc2n1CCN2c1ccc(OC)cc1	i	-0.18
4	O=C(COCc1cc(-c2ccc3c(c2)OCO3)on1)NCC1CCCO1 (stereo unspecified)	i	-1.1
5	O=C(Cc1ccc(F)cc1)N1CCC(n2nc(-c3ccccc3)oc2=O)CC1	i	0.82
6	Cc1nc(-c2cc(S(=O)(=O)NC(C)Cc3ccco3)c(C)s2)sc1C (stereo unspecified)	i	-0.59
7	COCC(C)NC(=O)c1cnc2scc(C)n2c1=O (stereo unspecified)	i	-0.92
8	Cc1nn(-c2nc3ccccc3[nH]2)c2c1C(c1ccc(Br)cc1)CC(=O)N2 (stereo unspecified)	i	0.38
9	CCNC(=O)[C@H]1O[C@@H](n2cnc3c(N)nc(NCCc4ccc(CCC(=O)O)cc4)nc32)C(O)[C@H]1O (stereo partly specified)	i	-0.26
10	Cc1ccc2c(c1)OC=CC(C(=O)Nc1ccc(F)cc1)=C2	i	4.1
11	CCOc1ccc(NC(=O)CNC(=O)CNS(=O)(=O)c2ccc3c(c2)C(C)(C)C(=O)N3C)cc1	i	-0.73
12	CCOC(=O)c1c(NC(=O)C2Cc3ccc(C)cc3C(=O)O2)sc(C)c1C (stereo unspecified)	i	-0.24
13	CCCCCNc1nc2c(S(=O)(=O)c3ccccc3)nnn2c2ccccc12	i	1.4
14	CCOc1ccc(-c2csc(Cc3nc(-c4ccccc4)no3)n2)cc1	i	1.1
15	COC(=O)c1cnc(N2CCN(c3cccc(Cl)c3)CC2)c2ccccc12	i	1.2
16	CN1CCCN(c2cc(C(=O)O)c3cc(NC(=O)c4ccccc4Cl)ccc3n2)CC1	i	0.09
17	CCCCS(=O)(=O)N1C[C@@H]2CN(S(=O)(=O)c3cccc(C)c3)C[C@H](C1)O2	i	1.1
18	CC(C)c1cc(C2CCCN2S(=O)(=O)c2ccc(Cl)s2)on1 (stereo unspecified)	i	0.95
19	O=S(=O)(Nc1nc2n(n1)C(c1ccc(F)cc1)C=C(c1ccc(Cl)cc1)N2)c1ccccc1 (stereo unspecified)	i	0.3
20	Cn1nnnc1SCCNCc1ccc2c(c1)OCCO2	i	0.34
21	Cc1cc(C2CCCN2C(=O)c2cc(-c3ccccc3)on2)no1 (stereo unspecified)	i	0.04
22	O=C(c1ccc2ccnc(N3CCN(c4ccccc4)CC3)c2c1)N1CCCC1	i	-0.01
23	Cn1c(=O)c(N2CCCC(C(=O)NCCc3c[nH]c4ccc(Cl)cc34)C2)nc2cccnc21 (stereo unspecified)	i	0.68
24	COC(=O)c1ccc(NC(=O)NCc2cccn2Cc2cccc(C)c2)cc1	i	0.93
25	CCc1nc(-c2csc(S(=O)(=O)Nc3ccc(Br)c(C)c3)c2)no1	i	0.13
26	N#CC1=CN(c2cc(F)cc(F)c2)c2ccccc2S1(=O)=O	i	0.34
27	COc1ccc(/C=C\c2onc(C)c2S(=O)(=O)N2CCC(C(=O)Nc3cccc(C)c3)CC2)cc1	i	-1.7
28	CCN(CC)CCCNC(=O)c1cc2c(n(-c3ccc(F)cc3)c1=O)CCCC2=O	i	-1.3
29	CCCS(=O)(=O)c1nc2ccc(NS(=O)(=O)c3ccc4c(c3)oc(=O)n4C)cc2s1	i	-1.9
30	Cc1cc(N2CCCCC2)n2nc(CN3CCCC(C)C3)nc2n1 (stereo unspecified)	i	0.37
31	O=C(NCCc1ccccc1)C1CCCN(S(=O)(=O)Cc2ccccc2)C1 (stereo unspecified)	i	-0.28
32	CCOC(=O)c1c(NC(=O)CCCc2nc(-c3ccc(Cl)cc3)no2)sc(C)c1C	i	0.04
33	Cc1nc2sccn2c(=O)c1S(=O)(=O)NCCC(C)C	i	0.46
34	O=C(CN1C(=O)CCc2cc(S(=O)(=O)N3CCOCC3)ccc21)NC1CCCc2ccccc21 (stereo unspecified)	i	-0.56
35	Cc1cc(C)c2c(-n3cccc3)c(C(=O)N3CCc4ccccc4C3)sc2n1	i	0.4
36	O=C(Nc1n[nH]c(-c2ccccc2)n1)c1ccc(Cl)cc1	i	1.3
37	COCCNC(=O)CCc1nc2sc3c(c2c(=O)[nH]1)CCC(C(C)(C)C)C3 (stereo unspecified)	i	-0.49
38	Cc1ccc(-c2cc(C(=O)N3CCN(c4cccc(C)c4C)CC3)[nH]n2)cc1	i	-0.39
39	Cc1nn(-c2ccccc2)cc1-c1noc(C(=O)NC2CCCCC2)n1	i	0.1
40	Cc1cc(SCC(=O)Nc2ccc(F)cc2F)nc2ccc(S(=O)(=O)N3CCCC3)cc12	i	1.2
41	Cc1ccc(CN2C(=O)C3CCCCC3C2=O)cc1S(=O)(=O)NC(C)C (stereo unspecified)	i	-0.96
42	COCc1nnc(NC(=O)COc2cccc(-c3nc(-c4ccccc4)no3)c2)s1	i	-0.28
43	CCc1ccc(NC(=O)c2ccc(CN3CCN(Cc4ccccc4)C3=O)cc2)cc1	i	1
44	Cc1nc(-c2cccc(NC(=O)C3CC(=O)N(c4ccccc4)C3)c2)no1 (stereo unspecified)	i	1.8
45	Cc1csc(-n2[nH]c(C)c(CC(=O)Nc3ccccc3F)c2=O)n1	i	-0.02
46	Cc1ccc(-c2cc3ncc4c(n3n2)-c2cc(F)ccc2OC4)cc1	i	-1.2
47	O=C(Nc1ccc(F)cc1Cl)C1Oc2ccccc2NC1=O (stereo unspecified)	i	-0.71
48	Cc1csc2ncc(C(=O)NC3CC3)c(=O)n12	i	-0.03
49	O=c1c2c(nc3nc(Cc4ccc(Cl)cc4)[nH]n13)CCC2	i	-0.72
50	COc1ccc(OC)c(NC(=O)N2CCN(c3ccc(=O)n(-c4ccccc4)n3)CC2)c1	i	-0.96
51	Cc1nc(-c2csc(S(=O)(=O)N3CCN(c4ccccc4Cl)CC3)c2)sc1C	i	-1.2
52	O=C(NCC1COc2ccccc2O1)c1cc(=O)n(Cc2ccc(Cl)cc2)c2ccccc12 (stereo unspecified)	i	-0.46
53	COc1ccccc1C(=O)Nc1ccccc1Sc1cc(C)nc2ncnn12	i	-0.8
54	O=C(NCc1ccc2c(c1)OCO2)c1cccc(-c2cc(NC3CCCCC3)ncn2)c1	i	0.07
55	O=C(Nc1ccc(F)cc1)c1nnc(CSCC(=O)N2CCN(c3ccccn3)CC2)s1	i	-0.73
56	Cc1cc(=O)n2[nH]c(CN(C(=O)c3ccc(C(C)(C)C)cc3)c3ccc(Cl)cc3)nc2n1	i	-0.81

The list goes on:
#	Molecule	Anaer choline gr	Anaer choline gr early
57	CC(C)CC1N=C2c3ccccc3N=C(SC(C)C(=O)Nc3ccc4c(c3)OCCO4)N2C1=O (stereo unspecified)	i	-1.5
58	O=C(NC1CC(=O)N(c2ccc3c(c2)OCCO3)C1)C1CCCCC1 (stereo unspecified)	i	0.48
59	CCCN1CCN(Cc2nc3nc(C)cc(N4CCN(C)CC4)n3n2)CC1	i	1.5
60	CS(=O)(=O)OCCCCOS(C)(=O)=O	i	1.1
61	O=C(NCC(F)(F)F)C1CCN(Cc2noc(-c3ccc(F)cc3)n2)CC1	i	0.14
62	Cc1cccc(-c2nc(SCC(=O)NCC3CCCO3)c3c(=O)n(C)c(=O)n(C)c3n2)c1 (stereo unspecified)	i	-1.3
63	O=c1ccc(-c2ccc(F)cc2)nn1CCc1nc(-c2ccc(Br)cc2)no1	i	0.53
64	CCCCn1c(O)c(C2=NN(C(=O)CC)C(c3ccc(Br)cc3)C2)c(=O)[nH]c1=S (stereo unspecified)	i	0.31
65	CCNC(=O)C1CCCN(S(=O)(=O)c2cn(CC)cn2)C1 (stereo unspecified)	i	-0.05
66	CC(C)c1cnc2c(c1SCC(=O)OCc1ccccc1)c(=O)n(C)c(=O)n2C	i	-0.29
67	O=C(NCc1ccncc1)C1CC(=O)N(CCc2c[nH]c3ccc(F)cc23)C1 (stereo unspecified)	i	-1.6
68	NC(=O)c1c(-c2ccccc2)nc2n1CCS2(=O)=O	i	-1.5
69	COc1cccc(OCc2nn3c(CSc4ccccc4)nnc3s2)c1	i	0.49
70	O=C(NCc1cccnc1)c1cc(=O)nc2sc(N3CCCCC3)nn12	i	-1.1
71	Cc1nc(-n2nc(C)c(Cc3ccccc3)c2C)sc1C(=O)N1CCN(C)CC1	i	-0.97
72	Cn1c(=O)c2c(ncn2CC(O)CO)n(C)c1=O (stereo unspecified)	i	0.57

5 structures already listed, arranged by length of the SMILES, lowest first:
#	Molecule	Anaer choline gr	Anaer choline gr early
68	NC(=O)c1c(-c2ccccc2)nc2n1CCS2(=O)=O	i	-1.5
65	CCNC(=O)C1CCCN(S(=O)(=O)c2cn(CC)cn2)C1 (stereo unspecified)	i	-0.05
70	O=C(NCc1cccnc1)c1cc(=O)nc2sc(N3CCCCC3)nn12	i	-1.1
71	Cc1nc(-n2nc(C)c(Cc3ccccc3)c2C)sc1C(=O)N1CCN(C)CC1	i	-0.97
66	CC(C)c1cnc2c(c1SCC(=O)OCc1ccccc1)c(=O)n(C)c(=O)n2C	i	-0.29

(continued)
#	Molecule	Anaer choline gr	Anaer choline gr early
73	CCN1C(=O)c2ccccc2S(=O)(=O)c2ccc(C(=O)N3CCC(C)CC3)cc21	i	0.49
74	COc1ccc(CC(=O)N2CCCC(C)(C(=O)NCc3cccc(F)c3)C2)cc1OC (stereo unspecified)	i	0.13
75	Cc1cccc(-c2nccc(Nc3ccc(C(=O)N4CCN(Cc5ccccc5)CC4)cc3)n2)c1	i	1.1
76	Cc1cc(N2CCCC2)n2nc(CN3CCN(c4ccccc4)CC3)nc2n1	i	-0.11
77	Cc1csc(-c2cc(S(=O)(=O)N3CCN(C)CC3)cn2CC(=O)N2CCCCC2)n1	i	0.31
78	CC(C)c1nnc2sc(COc3ccc(Br)cc3)nn12	i	0.09
79	Cn1ccc(CN2CCSCC2)cc1=O	i	0.28
80	Cc1cc(C)c2c(n1)SCCN2C(=O)NCCC(=O)NCCN(C)C	i	0.42
81	COc1cc(NS(=O)(=O)c2cc3[nH]c(=O)[nH]c3cc2Cl)cc(OC)c1	i	-1.2
82	COc1ccc(NC(=O)C2CCN(C(=O)c3ccc(-c4noc(C)n4)cc3)CC2)cc1OC	i	-0.71
83	Clc1ccc2c(c1)nc1n2CCN(Cc2ccco2)C1	i	0.01
84	Cc1csc(-c2cc(S(=O)(=O)NCc3ccc4c(c3)OCO4)cn2CC(=O)N2CCCC2)n1	i	0.36
85	Cn1nc(-c2ccccc2)c(-c2ccccc2)c(C(=O)OCC2CCCO2)c1=O (stereo unspecified)	i	-0.23
86	O=C(c1csc(S(=O)(=O)NCc2ccc(Cl)cc2)c1)N1CCCC1	i	-1.1
87	Cc1ccc2c(c1)NC(=O)c1cc(S(=O)(=O)N3CCOCC3)ccc1O2	i	-0.57
88	Cc1ccc(S(=O)(=O)N2CCCc3cc(C(=O)Nc4ccc(S(N)(=O)=O)cc4)ccc32)cc1	i	-0.42
89	O=C(C1CC(=O)N(c2ccccc2)C1)N1CCN(c2ncnc3c2nnn3-c2ccccc2)CC1 (stereo unspecified)	i	0.4
90	CCCc1cc(N2CCN(c3ccc(F)cc3)CC2)n2nc(-c3ccco3)nc2n1	i	1.6
91	Ic1cc(-c2ccccc2)ncn1	i	0.26
92	C#CCOc1ccc(C2CC(=O)Nc3c2cnn3-c2ccc3nnc(C)n3n2)cc1 (stereo unspecified)	i	-0.3
93	Clc1ccc(N2CCN(c3nn4nnnc4c4ccccc34)CC2)cc1	i	0.05
94	O=C(Nc1nc2cc(NC(=O)c3[nH]nc4c3COc3ccccc3-4)ccc2s1)c1ccccc1	i	-0.23
95	O=C(c1nnc(-c2csc(S(=O)(=O)N3CCCCC3)c2)o1)N1CCCC1	i	0.3
96	COc1cc2c(cc1OC)C(Nc1nc(-c3ccccc3)cs1)=NC(C)(C)C2	i	0.62
97	COc1cc(C2CC(=O)Nc3c2c(C)nn3-c2ccc3nnc(C)n3n2)ccc1OCc1ccccc1 (stereo unspecified)	i	0.76
98	CN1CCc2c(sc(NC(=O)C3COc4ccccc4O3)c2-c2nc3ccccc3s2)C1 (stereo unspecified)	i	-0.53
99	COc1ccc2[nH]c3c(c2c1)CCN(C(=O)CCc1ccccc1)C3c1ccc(F)cc1 (stereo unspecified)	i	0.3
100	Cc1ccc(Cn2nnc(C(=O)O)c2C(=O)O)cc1	i	0.64
101	Cn1c(=O)n(-c2ccc(F)cc2)c2nc(-c3cccc(Br)c3)nc(C(N)=O)c21	i	0.97
102	N#CC1=CN(c2ccccc2F)c2cc(F)ccc2S1(=O)=O	i	-0.07
103	CC(=O)N1CCOc2ccc(S(=O)(=O)NCCc3ccc(S(N)(=O)=O)cc3)cc21	i	-0.29
104	COc1ccccc1C1C2=C(CC(c3ccc(O)cc3)CC2=O)Nc2onc(C)c21 (stereo unspecified)	i	0.33

One compound at a time, from the list above. Values in the order: Anaer choline gr	Anaer choline gr early
`C=CCSc1nnc2n1CCN2c1ccc(OC)cc1` as listed: i	-0.18
`N#CC1=CN(c2ccccc2F)c2cc(F)ccc2S1(=O)=O` as listed: i	-0.07
`Cc1cc(=O)n2[nH]c(CN(C(=O)c3ccc(C(C)(C)C)cc3)c3ccc(Cl)cc3)nc2n1` as listed: i	-0.81
`NC(=O)c1c(-c2ccccc2)nc2n1CCS2(=O)=O` as listed: i	-1.5
`O=C(NCc1ccc2c(c1)OCO2)c1cccc(-c2cc(NC3CCCCC3)ncn2)c1` as listed: i	0.07

The listing continues.
#	Molecule	Anaer choline gr	Anaer choline gr early
105	O=C(NCCc1ccccc1)c1ccc2c(c1)NC(=O)C(CS(=O)(=O)Cc1ccc(F)cc1)N2 (stereo unspecified)	i	-0.37
106	Cc1ccc(-c2cc3ncc(C(=O)c4cc(F)ccc4O)cn3n2)cc1	i	-1.4
107	CCC(C)NS(=O)(=O)c1cc(-c2cc(C)no2)sc1C (stereo unspecified)	i	0.1
108	COc1ccc(NC(=O)N(Cc2nnc3n2CCCCC3)c2ccccc2)cc1	i	-1

Screening data: PubChem, ICCB-Longwood Screening Facility, Harvard Medical School

These rows are one share of the data; the hit share may differ from the screen's.
